Screens: PubChem BioAssay, Fisher Drug Discovery Resource Center
NPYLR7 agonist = mosquito NPYLR7 agonism; HEK293T NPYLR7/Galpha15, GCaMP6s calcium fluorescence; activation, % at 10 µM; 270,000 tested, 0.15% active; in the data active = activation above about 40%;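 note: 0% = vehicle and 100% = reference agonist at the receptor; some compounds past the cut are filed as inactive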
NPYLR7 agonist max-min = second read-out of NPYLR7 agonist, no call of its own (marks repeat the call); activation, %; measured here: Max-Min RFU normalised activation; some inactives read as strong as hits;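 span of the calcium signal over five minutes; 0% = vehicle and 100% = native peptide agonist; compound fluorescence can raise it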
* marks the source's active call; other numbers are inactive results; & = joins results of further samples.

Values run as follows: NPYLR7 agonist | NPYLR7 agonist max-min
CC(C)Oc1ccc(C(O)=C2C(=O)C(=O)N(CCCN(C)C)C2c2cccc([N+](=O)[O-])c2)cc1 (centres undefined)
→ 10 | 11
Cc1ccc(S(=O)(=O)NC(=O)C2(C)CCN2C(=O)Cc2ccc(C(C)(C)C)cc2)cc1 (centres undefined)
→ -2 | -4
CCCc1[nH]n(-c2ccc(Cl)cc2)c(=O)c1C1=C([n+]2cc(C)cc(C)c2)C(=O)N(CCOC)C1=O
→ -6 | 1
CCc1cccc(NC(=O)N(CC(=O)N(Cc2ccccc2)Cc2ccc(C)s2)CC2CCCO2)c1 (centres undefined)
→ 24 | 27
Cc1ccc(Cc2nsc(NCCC(C)C)n2)cc1
→ 2 | 13
Clc1ccc(Cl)c(SCCc2ccccn2)c1
→ -2 | -1
Cc1ccc(Cn2nc(C)c(C(=O)Nc3nc4c(s3)CCCC4)c2Cl)cc1
→ 4 | 5
O=C(Cc1cccs1)N1CCN(C2=NS(=O)(=O)c3ccccc32)CC1
→ -7 | -12
O=c1oc2ccc([N+](=O)[O-])cc2cc1-c1nnc(Nc2ccc(F)cc2F)s1
→ -5 | -8
Cc1cccc(C)c1Oc1ncccc1CNC(=O)c1cccnc1
→ 2 | -1
N[C@@H]1c2ccccc2C2(CCN(C(=O)c3cccc4nccnc34)CC2)[C@H]1O
→ -1 | -5
CC1(C(=O)NCc2ccc3c(c2)OCO3)CCN1C(=O)CC1CCCC1 (centres undefined)
→ 5 | 3
COc1cccc(CCC(=O)n2ccn(-c3ccc(Oc4ccccc4)cc3)c2=O)c1
→ 0 | -12
O=C(NC1CC(=O)N(Cc2ccccc2)C1)c1cc(F)ccc1F (centres undefined)
→ -1 | 6
COc1ccc(S(=O)(=O)NCC2CCCN(Cc3ccc(-c4ccco4)cc3)C2)cc1 (centres undefined)
→ 19 | 6
CCc1ncc(CN2CCCCC2CCc2ccc(O)cc2)cn1 (centres undefined)
→ 0 | -10
O=C1NCCc2[nH]c(-c3ccncc3)cc21
→ -3 | -4
Cc1ccc(C)c(-n2cnn(CN3CCN(c4ccccc4O)CC3)c2=S)c1
→ 5 | 0
O=C(NCc1cccnc1-n1cncn1)C1CCCCC1
→ -2 | -2
CC(C)c1ccc(C(O)Cn2nc(-c3ccco3)oc2=O)cc1 (centres undefined)
→ 5 | 4

Brought forward from above: three compounds, then new ones.
Values run as follows: NPYLR7 agonist | NPYLR7 agonist max-min
Cc1ccc(C)c(-n2cnn(CN3CCN(c4ccccc4O)CC3)c2=S)c1
→ 5 | 0
O=C(NCc1cccnc1-n1cncn1)C1CCCCC1
→ -2 | -2
CC(C)c1ccc(C(O)Cn2nc(-c3ccco3)oc2=O)cc1 (centres undefined)
→ 5 | 4
CCCN(CCC)CC(=O)C(C#N)c1nc(-c2ccccc2)cs1 (centres undefined)
→ -3 | -11
CCn1ncc(-c2ccc3c(c2)OCCO3)c1C(=O)OC
→ -2 | -4
CC(C)CN(CC(=O)N(Cc1ccccc1)Cc1cccn1Cc1ccc(F)cc1)C(=O)c1cccc(Cl)c1
→ 1 | 6
CC(C)Cc1ccc(CN2CCC(NS(C)(=O)=O)CC2)cc1
→ 6 | 3
CSc1ccc(S(=O)(=O)N2CCN(Cc3ccc4c(c3)OCO4)CC2)cc1
→ 6 | 2
COc1ccc2c(c1)[nH]c1c(=O)n(/N=C\C3C(C)C=C(C)CC3C)c(=O)[nH]c12 (centres undefined)
→ 1 | 45
CS(=O)(=O)Cc1ccc(NC(=O)c2cscn2)cc1F
→ 2 | -1
CC1=NN(CC(=O)NCC(=O)Nc2cc(F)ccc2C)CC1
→ -8 | -9
O=C([C@H]1Cc2c([nH]c3ccccc23)CN1)N1CCCC(CO)C1 (some centres undefined)
→ 5 | 4
CCCC1(C2CCN(C(=O)CCc3cccs3)CC2)NC(=O)N(CCc2ccccn2)C1=O (centres undefined)
→ 42 | 33
CCCc1cc(C(=O)NCC(C(C)C)N2CCCC2)n[nH]1 (centres undefined)
→ 5 | 5
COCc1c(Br)c(C)nc(OCC(=O)N/N=C\c2c(OC)ccc3ccccc23)c1C#N
→ -9 | -10
S=C(NC1CC1)NC1CCCc2ccccc21 (centres undefined)
→ 4 | 3
O=C(c1csc(CSc2nnc(-c3ccccc3Cl)n2-c2ccccc2Cl)n1)N1CCOCC1
→ 7 | 11
COc1ccc(-c2ccc(=O)n(CCNC(=O)NC3CCCCC3)n2)cc1
→ -7 | -5
COc1ccc(OC2CCN(C(=O)C3CC3)CC2)c(C(=O)NCCN2CCOC2=O)c1
→ 4 | -1
CCn1nc(C)c(CN2CC(=O)N(C3CCCCC3)CC(OCc3ccncc3)C2)c1C (centres undefined)
→ 16 | 6
CCCc1cc(CNC(=O)c2ccc(N3CCN(C)C(CC)C3)nc2)on1 (centres undefined)
→ 2 | -3
CCN1CCc2c(sc(NC(=O)C(C)(C)C)c2-c2nc3ccccc3s2)C1
→ 3 | 3
O=S1(=O)CCN2N=C(SCc3cccs3)SC2=N1
→ 0 | 3

Single records, from the list above. Order of screens: NPYLR7 agonist, NPYLR7 agonist max-min
CSc1ccc(S(=O)(=O)N2CCN(Cc3ccc4c(c3)OCO4)CC2)cc1 is listed with 6, 2
S=C(NC1CC1)NC1CCCc2ccccc21 (centres undefined) is listed with 4, 3
COc1ccc(OC2CCN(C(=O)C3CC3)CC2)c(C(=O)NCCN2CCOC2=O)c1 is listed with 4, -1
CS(=O)(=O)Cc1ccc(NC(=O)c2cscn2)cc1F is listed with 2, -1
CCCc1cc(C(=O)NCC(C(C)C)N2CCCC2)n[nH]1 (centres undefined) is listed with 5, 5

Next compounds follow:
Values run as follows: NPYLR7 agonist | NPYLR7 agonist max-min
COc1cc(C(=O)N2CCN(c3nccc(-c4ccc(Oc5ccccc5)cc4)n3)CC2)cc(OC)c1OC
→ 7 | 0
CC(C)CCOc1ncnc2c1sc1nc3c(cc12)COC(C)(C)C3
→ 4 | 3
CCCN(C/C=C/c1ccccc1)C(=O)c1c[nH]c2ccc(OC)cc2c1=O
→ -5 | -9
COc1ccc(-c2csc(-n3[nH]c(C)c(N=Nc4ccccc4Cl)c3=O)n2)cc1
→ -4 | -8
CC(C)c1ccc(NCCn2cccn2)cc1
→ -3 | -8
CCCn1cc(S(=O)(=O)c2ccccc2)c(=O)c2cc(F)c(F)cc21
→ -8 | -14
CN(C)c1ccc(N2C(=O)CSC2c2cccc(NC(=O)c3ccccc3Cl)c2)cc1 (centres undefined)
→ -8 | 3
C[C@@H]1CN(C(=O)c2nc3sccn3c2CN2CCN(c3ncccn3)CC2)C[C@H](C)O1
→ 1 | 0
CCOc1c(C)cnc2c1c(=O)n(CC(=O)NC(C)C)c(=O)n2C
→ 7 | 6
COc1ccc2c(C)nc(N3CCCC(C(=O)NCCc4cccc(F)c4)C3)nc2c1 (centres undefined)
→ -1 | -10
COc1ccc(N(CC(=O)NCc2ccccn2)S(=O)(=O)c2ccccc2[N+](=O)[O-])c(OC)c1
→ 9 | 13
COCCn1c(-c2ccccc2C)nc2c(c(=O)c3ccccc3n2C)c1=O
→ 0 | -5
O=C(Cn1cnnn1)N1CCc2nnc(CCc3ccccc3)n2CC1
→ 0 | 14
CCCNC(=O)c1ccc(N(C)Cc2nnc3ccccn23)nc1
→ 7 | 3
CCC(C(=O)N(CC(=O)N(CCc1c[nH]c2ccccc12)Cc1ccc(C(F)(F)F)cc1)C1CC1)c1ccccc1 (centres undefined)
→ -2 | -8
Cc1cnc(N2CCC(O)(c3ccccc3)CC2)nc1N(C)C
→ 0 | -3
COCC1(C(=O)NCCn2c(C)cc3ccccc32)CCC1
→ 3 | -1
Cc1ccccc1CN1CCc2c(O)cccc2C1=O
→ 2 | 1
CCC(=O)C1(NC(=O)Cn2c(=O)n(CC)c3ccccc32)CCCCC1
→ -6 | -10
CC(NC(=O)c1ccccc1-c1nccn1C)c1ccc(O)c(F)c1 (centres undefined)
→ 1 | -3

The final four entries of the part before come first, to join the parts.
Values run as follows: NPYLR7 agonist | NPYLR7 agonist max-min
COCC1(C(=O)NCCn2c(C)cc3ccccc32)CCC1
→ 3 | -1
Cc1ccccc1CN1CCc2c(O)cccc2C1=O
→ 2 | 1
CCC(=O)C1(NC(=O)Cn2c(=O)n(CC)c3ccccc32)CCCCC1
→ -6 | -10
CC(NC(=O)c1ccccc1-c1nccn1C)c1ccc(O)c(F)c1 (centres undefined)
→ 1 | -3
CC(C)c1cc(NC(=O)C(OC2CCCC2)c2ccccc2)n[nH]1 (centres undefined)
→ 2 | 1
CC(c1nc2ccccc2s1)N(C)C(=O)CCn1nc(-c2cccs2)oc1=O (centres undefined)
→ 2 | 8
Cc1nc(-n2cnnc2)ccc1-c1ccc2c(c1)OCO2
→ 13 | 13
O=C(c1cc(-c2ccccc2)no1)N1CCC(CO)(Cc2ccc(Cl)cc2)CC1
→ 19 | 11
CCCCN1C[C@@H](C(=O)O)C[C@H](C(=O)Nc2ccc(C)nc2)C1
→ -1 | -3
CCCN(CC1CC1)C(=S)NC(=O)C1CC1
→ -11 | -18
CCN(CC)C(=O)[C@@H]1C[C@H](N)CN1C(=O)Cc1nc(C)sc1C
→ -1 | -8
CCn1c2ccccc2n2nc(C)c(C(C)=O)c12
→ -11 | -14
C=CCn1c(=O)c2c(nc3n(-c4cc(C)ccc4C)c(C)c(C)n23)n(C)c1=O
→ 0 | 7
CCOCCn1c(=NC(=O)c2cccc(S(C)(=O)=O)c2)sc2cccc(F)c21
→ 7 | 6
N#Cc1c(NC(=O)CN2C(=O)c3ccccc3C2=O)sc2c1CCCC2
→ -1&-8 | 8&-15
CCC(C(=O)Nc1c(C)nc2c(C)cccn2c1=O)c1ccccc1 (centres undefined)
→ 1 | -1
c1ccc2sc(N3CCN(Cc4ccc5c(c4)OCO5)CC3)nc2c1
→ 8 | -6
O=C(c1ccc(NCc2ccncc2)cc1)N1CCC2(CCNCC2)CC1
→ 7 | 4
Cn1c(=O)c2c(nc(SCC(=O)NC3CC3)n2C)n(C)c1=O
→ 1 | -1
CCCN(CC(=O)Nc1ccc(C#N)cc1)S(=O)(=O)c1cccc(C(F)(F)F)c1
→ 5 | 3
CC(C)Oc1ccccc1Oc1ccc2c(C3CC3)noc2n1
→ 3 | 0
CCCc1c(C(=O)Nc2cccc(-c3cccc(-c4ccc(F)cc4)n3)c2)cnn1-c1ccccc1
→ 13 | 20
CN(Cc1ccncn1)C(=O)c1cnn(Cc2ccccc2)c1
→ 2 | 10
Cn1c(=S)[nH]c2sc3c(c2c1=O)CCCC3
→ 3 | 3

Four of the compounds above, comma-delimited:
SMILES,NPYLR7 agonist,NPYLR7 agonist max-min
O=c1oc2ccc([N+](=O)[O-])cc2cc1-c1nnc(Nc2ccc(F)cc2F)s1,-5,-8
CC(C)CN(CC(=O)N(Cc1ccccc1)Cc1cccn1Cc1ccc(F)cc1)C(=O)c1cccc(Cl)c1,1,6
CCC(C(=O)Nc1c(C)nc2c(C)cccn2c1=O)c1ccccc1 (centres undefined),1,-1
Cn1c(=S)[nH]c2sc3c(c2c1=O)CCCC3,3,3

The results go on.
Values run as follows: NPYLR7 agonist | NPYLR7 agonist max-min
Cc1cc(CCCCCCc2cc(C)cc(=O)o2)oc(=O)c1
→ 5 | 0
Cc1onc(-c2c(Cl)cccc2Cl)c1COC(=O)CN(C)CC1OCCO1
→ -2 | -9
NS(=O)(=O)c1ccc(N2CCCC2c2ccc3c(c2)OCCCO3)nc1 (centres undefined)
→ 0 | 3
O=C(Nc1ccc(N2CCN(C(=O)c3cc(F)cc(F)c3F)CC2)nc1)c1ccc(F)cc1
→ 20 | 11
CN(C)CCN(Cc1ccsc1)C(=O)[C@@H]1C[C@H]1c1ccccc1
→ 5 | 5
Cc1cc(NS(=O)(=O)c2ccc(N=CC(C#N)c3nc(-c4cccs4)cs3)cc2)no1 (centres undefined)
→ 5 | 4
CNS(=O)(=O)CC1CCCN1C(=O)c1cc2c(s1)CCCC2 (centres undefined)
→ -7 | -7
CCn1ncc(S(=O)(=O)N2CC[C@@H](c3ccc4c(c3)OCO4)[C@H](O)C2)c1C
→ 15&14 | 12&8
O=C(c1cccc([N+](=O)[O-])c1)N(Cc1cccnc1)c1nc2c(F)cccc2s1
→ -11 | -12
COc1ccc(C2SCC(=O)N2CCN(C(=O)c2ccccc2Cl)C(C)C)cc1 (centres undefined)
→ -6 | 4
Nc1nc(Cl)cc(N2CCCC(c3ncn[nH]3)C2)n1 (centres undefined)
→ 1 | 8
O=C(Nn1cnc2c(cnn2-c2ccccc2)c1=O)c1ccc(Br)o1
→ 7 | 8
C[C@@H](NC(=O)Nc1cc(C(F)(F)F)ccc1Cl)C(=O)N1CCC(C(=O)N2CCCCC2)CC1
→ 24 | 33
CSc1ccc(C(=O)CC(C)(C)C(=O)NCCc2ccc(C)cc2)cc1
→ -12 | -19
CCn1ccnc1CN(C)c1ccc(-c2ccccc2OC)nn1
→ 21 | 7

These rows are one share of the data, so the mix of outcomes need not match the whole.
